High-throughput results deposited in PubChem BioAssay by National Center for Advancing Translational Sciences (NCATS).
Menin MLL FP FL: qHTS Assay for Inhibitors Targeting the Menin-MLL Interaction in MLL Related Leukemias: Competition With Fluorescein Labeled MLL-derived Peptide; Fluorescence polarization, fluorescein-MLL peptide displacement from menin; FP activity change, % at 61.4 µM; 290,000 tested, under 10 active; AID 1766, 2009; inconclusive = falling polarisation curve, or a change in total fluorescence; inactive = total fluorescence flat and polarisation flat or rising; no compound was filed as active; the % refers to the polarisation; negative = inhibition;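 further: % of control where 0% means no effect; inhibitors lower the polarisation; unlabelled MLL peptide was the positive control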
TRPV1 PAM: HTS Assay for Compounds that Act as Potentiators of the Vanilloid Receptor 1 | Transient receptor potential cation channel subfamily V member 1 (Homo sapiens), Q8NER1 | potentiation, % at 8.33 µM | TRPV1-expressing cells, Fluo-8 calcium influx, capsaicin EC20 potentiation; host cell line not named in the record; control for the full effect not named in the record | 0.02% of 320,000 active | AID 540277, 2011; active means potentiation above 80%; inconclusive means 30% to 80%; inactive means below 30%; further: 0% is about no effect
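TRPV1-expressing cells were cultured overnight at 35.5C and loaded with Fluo-8 calcium dye for 40 to 90 min at room temperature. After a 10 s baseline, compound was added and calcium influx was read kinetically for 3 min (ex 480/em 520 nm).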
gsp antag: qHTS for Antagonists of gsp, the Etiologic Mutation Responsible for Fibrous Dysplasia/McCune-Albright Syndrome: qHTS. Potency, µM (series often up to 76.9 µM), without a hit: at the top dose activity change, negative = inhibition, actives largely listed as inhibitors. 0.4% of 340,000 active. gsp-mutant cells, cAMP HTRF, 30 min; control for the full effect not named in the record; active = falling curve of any shape with a large fitted effect; inconclusive = falling curve, mostly with a smaller effect; inactive = flat or rising curve; cell line not stated here;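 further: intracellular cAMP measured with PDE inhibitor Ro 20-1724 present during compound exposure; potency means the concentration at half of the fitted maximal effect; on the % scale 0 is the no-effect control and ±100 the full control effect; nearly all actives have a fitted effect of over 65% in size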
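HTRF cAMP measurement after 30 min RT detection following 30 min, 37C compound treatment alongside […] (added as 300 uM solution) in G418-selected cells seeded at 2000/well and grown 16–24 h.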
TRPML1 inh: qHTS for Inhibitors of the Human Mucolipin Transient Receptor Potential 1 (TRPML1); 0.02% of 390,000 active; AID 624415, 2012; Mucolipin-1 (Homo sapiens), Q9GZU1; activity change, negative = inhibition, % (no concentration beside the values); TRPML1-inducible cells, Ca2+ dye fluorescence, FDSS; stronger effect = lower value; inhibition of EC80 agonist-evoked calcium signal; in the data active means activity change below about -50%; inconclusive means about -30% to -50%; inactive means above about -30%;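 further: stimulus is agonist 54-4 at its EC80 concentration; on the % scale 0 is the no-effect control and ±100 the full control effect; compound concentration not given in the record; the text of the record puts the active cut at -80%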
Target sequence (Q9GZU1 whole entry, looked up): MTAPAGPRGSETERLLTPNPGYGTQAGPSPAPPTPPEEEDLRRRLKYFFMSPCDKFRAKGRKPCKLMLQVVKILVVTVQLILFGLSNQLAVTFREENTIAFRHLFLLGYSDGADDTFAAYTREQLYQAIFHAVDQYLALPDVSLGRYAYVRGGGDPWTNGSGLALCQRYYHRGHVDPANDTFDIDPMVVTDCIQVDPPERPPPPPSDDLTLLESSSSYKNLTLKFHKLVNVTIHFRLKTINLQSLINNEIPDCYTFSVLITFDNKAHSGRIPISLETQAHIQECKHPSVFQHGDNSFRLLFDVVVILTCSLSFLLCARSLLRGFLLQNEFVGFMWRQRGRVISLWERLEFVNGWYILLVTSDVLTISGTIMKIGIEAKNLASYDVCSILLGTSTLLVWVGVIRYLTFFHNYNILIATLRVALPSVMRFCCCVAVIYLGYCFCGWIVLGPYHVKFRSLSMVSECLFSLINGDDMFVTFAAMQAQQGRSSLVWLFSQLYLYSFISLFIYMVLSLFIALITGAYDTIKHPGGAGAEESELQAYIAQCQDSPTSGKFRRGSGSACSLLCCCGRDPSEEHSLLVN
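TRPML1-DL cells, Tet-induced overnight (~16 h, 37 °C) at 1,500 cells/well, were loaded with Ca8 no-wash dye plus quencher for 45-90 min at room temperature. Compounds were pinned during FDSS kinetic reading; agonist 54-4 at EC80 (4 uM final) then added.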
ClpP mod: qHTS Assay for Activators of ClpP; AID 651965, 2013; ATP-dependent Clp protease proteolytic subunit (Bacillus subtilis (strain 168)), P80244; Potency, µM (titrated, usually from 57.5 µM), without a hit: at the highest dose activity change, negative = active; purified B. subtilis ClpP, FRET peptide cleavage, 20 min; 1.9% of 340,000 active; active = well fitted falling curve with a large enough effect; inconclusive = small, poorly fitted or top-dose-only effect; inactive = no such curve, though single readings can be large or run the other way; further: potency means the concentration at half of the fitted maximal effect; the source files actives as falling curves though it sought activators and does not explain the sign; nearly all actives have a fitted effect of over 65% in size; many hits overshoot -100%
Target sequence (P80244 whole entry, looked up): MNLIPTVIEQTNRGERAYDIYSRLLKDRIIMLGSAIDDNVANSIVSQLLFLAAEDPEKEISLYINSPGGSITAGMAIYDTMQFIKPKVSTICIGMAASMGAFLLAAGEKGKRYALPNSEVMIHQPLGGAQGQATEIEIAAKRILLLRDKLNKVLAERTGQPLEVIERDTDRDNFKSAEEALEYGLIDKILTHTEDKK
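ClpP 10 microg/mL final, pH 8 Tris/KCl buffer with BSA, glycerol, Tween-20; compound pinned in; FRET-FV substrate; RT 20 min; Ex320/Em430; ΔFRET vs ADEP 5.8 microM, DMSO, no enzyme.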
gsp agonist: qHTS for Agonist of gsp, the Etiologic Mutation Responsible for Fibrous Dysplasia/McCune-Albright Syndrome: qHTS. gsp mutant cells, cAMP HTRF, 30 min; control for the full effect not named in the record. AID 624287, 2012. 0.13% of 340,000 active. Potency, µM (series often up to 76.9 µM), for the others: at the top dose activation (cAMP increase), actives largely listed as activators; active = well fitted activation curve with a large enough effect; inconclusive = small, poorly fitted or top-dose-only effect, or another doubt; inactive = no such curve, though single readings can be large or run the other way; cell line not stated here;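 further: phosphodiesterase inhibitor Ro 20-1724 added with compounds to block cAMP breakdown; potency means the concentration at half of the fitted maximal effect; nearly all actives have a fitted effect of over 60% in size; about a fifth of the inactives were tested at one dose only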
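Cells stably selected in G418 were plated at 2000/well, grown 16-24 hr, then given compounds in DMSO with the PDE inhibitor […] (300 uM solution added) for 30 min at 37C; cAMP was read by HTRF.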
Sfp PPTase inh: qHTS Assay for Inhibitors of Bacillus subtilis Sfp phosphopantetheinyl transferase (PPTase); Potency, µM, for the others: max response, negative = inhibition, actives largely listed as inhibitors; Biochemical Sfp PPTase activity, qHTS; 3.5% of 310,000 active; active means well fitted inhibition curve with a large enough effect; inconclusive means small, poorly fitted or top-dose-only effect, or another doubt; inactive means no such curve, though single readings can be large or run the other way;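 further: the enzyme is Sfp with the accession as filed and its product quenches rhodamine fluorescence; potency means the concentration at half of the fitted maximal effect; 0% = enzyme reaction without inhibitor and -100% = no enzyme wells; top concentration of the series not given in the record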
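After 15 min at room temperature with compound, 15 nM Sfp received 5 uM rhodamine-CoA plus 12.5 uM BHQ-2-ybbR (50 mM Hepes pH 7.6, 10 mM MgCl2). Rate came from the fluorescence difference over 30 min, ex 525/em 598 nm.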
* = called active by the depositor; ? = inconclusive; nt = no result given; & = joins results of further samples; [ ] = dose if it differs, or a comment. Rows are unselected; overall some 4.9% were active at least once.

SMILES	Menin MLL FP FL	TRPV1 PAM	gsp antag	TRPML1 inh	ClpP mod	gsp agonist	Sfp PPTase inh
COc1cc(OC)cc(C(=O)OCC(=O)Nc2ccc(F)cc2F)c1	0.7	0	-5%	5	nt	-6%[15.4 µM]	25%
CCOc1ccc(CCNC(=O)CCNS(=O)(=O)c2ccc3c(c2)CCN3C(C)=O)cc1OCC	4.1	4	-7%	-2	-0.4%	-9%	13%
CCS(=O)(=O)n1nc(-c2ccc(OC)cc2)nc1SC	-1.9	13	-8%	-12	1.6%	-10%	-5%
COc1ccc(NS(=O)(=O)c2cccc(C(=O)N/N=C/c3ccccc3OC)c2)cc1	nt	-14	29%	-5	-3.1%	-1%[15.4 µM]	nt
CCCOc1cccc(C(=O)NC(=S)Nc2cccc(C(F)(F)F)c2)c1	-1.8	-3	6%	-8	0.5%	0%	4%
COc1ccc(CC(=O)NCc2nnc(SCC(=O)Nc3ccc(OC)cc3)n2C)cc1	-0.1	4	-10%	22	0.3%	-24%	1%
O=C(O)CC1CCCC(c2ccccc2)C1=O (stereo not drawn)	2.1	3	12%	3	0.0%	-40%[inhibitor]	4%
O=C(NC(CO)Cc1ccccc1)c1ccccc1 (stereo not drawn)	4.3	-7	11%	-7	-0.6%	-12%[15.4 µM]	14%
COc1ccc(OC)c(NC(=O)CCc2nnc3ccc(N4CCC(C)CC4)nn23)c1	2.0	5	-10%	1	-1.1%	13%	3%
Cc1cc2cc(C)c3nnc(SCC(=O)NCc4ccc5c(c4)OCO5)n3c2cc1C	0.6	nt	-10%	20	-25%	0%	2%
CN(C)S(=O)(=O)c1cccc(NC(=O)CCc2nc3sc4c(c3c(=O)[nH]2)CCCC4)c1	nt	8	?	37	-1.6%	-31%[inhibitor]	nt
CC(OC(=O)C1CCCCC1)C(=O)Nc1cccc(Cl)c1 (stereo not drawn)	-1.0	-6	-14%	8	-1.2%	8%[15.4 µM]	21%
O=C(CSc1ccccc1Cl)c1ccco1	1.8	21	-10%	-4	-2.4%	14%	5%
Cc1c(C)n(CC(O)CN2CCOCC2)c2ccccc12 (stereo not drawn)	0.4	7	-2%	-4	-16%	-41%[inhibitor]	-13%
O=C(CCc1ccccc1Cl)NC1CCCN(c2ccc(C(F)(F)F)cn2)C1 (stereo not drawn)	-2.9	-4	4%	-14	?	10%	6%
CCCCn1c(N)c(N(CCOC)C(=O)CCCc2nc3ccccc3c(=O)[nH]2)c(=O)[nH]c1=O	nt	3	6%	-4	-4.8%	-41%[inhibitor]	nt
Cc1ccc(C)c(C(=O)CCC(=O)NNC(=O)Cn2nc(C)cc2C)c1	nt	7	2%	-18	nt	-2%[15.4 µM]	nt
O=C(c1ccco1)N1CCC(n2nnc3ccccc32)CC1	3.5	3	9%	-6	0.6%	8%	6%
O=C(Nc1nc(-c2cc(F)ccc2F)cs1)C1=NN(c2ccccc2)C(=O)CC1	-1.7	5	?	-22	nt	-39%[inhibitor]	8%
Cc1nn(Cc2ccccc2)c2c1C(c1ccc(Cl)cc1)C(C#N)=C(N)O2 (stereo not drawn)	-1.7	-2	-22%	-19	-4.1%	-2%	2%
CC1=C(C(=O)OCC(C)C)C(c2cc3c(cc2Br)OCO3)NC(=O)N1C (stereo not drawn)	2.4	-4	-9%	-5	0.6%	-24%	-16%
CCN(CC)CCCNc1oc(-c2cccc(Cl)c2)nc1C#N	4.2	-9	11%	3	7.5%	-23%	10%
Cc1cc2[nH]c3c(c[n+](C)c4ccccc34)c2cc1C	nt	-1	7%	0	-5.1%	?	-23%
CCC(C)NCC(=O)Nc1sc2c(c1C(N)=O)CCC2 (stereo not drawn)	2.5	13	10%	-3	-8.6%	-16%	-3%
C=CCNC(=O)c1onc(CSc2cccc(OC)c2)c1C(=O)O	-1.6	-4	-23%	-4	0.1%	0%	-3%
COc1ccc(-c2nc3nc(C)cc(Nc4cccc(C(F)(F)F)c4)n3n2)cc1	nt	-6	nt	28	4.6%	nt	nt
O=C(OCc1ccccc1)N1CCC2CC1c1cc(Cl)ccc12 (stereo not drawn)	nt	nt	-8%	67	0.2%	nt	nt
O=C(Nc1cccc(NC(=O)c2ccco2)c1)c1cnccn1	-4.1	5	-1%	-8	1.6%	1%	-7%
OCCN1CCN(C(=S)c2ccc(-c3ccccc3)cc2)CC1	4.5	-13	17%	6	nt	0%[15.4 µM]	7.1µM*
CCOc1ccccc1N(C(=O)CNC(=O)c1ccco1)C(C(=O)NC(C)(C)C)c1ccncc1 (stereo not drawn)	2.4	6	-4%	18	-1.8%	-17%	6%
C#CC(CC)(CC)NC(=S)Nc1cccc(C(C)=O)c1	0.8	-7	-12%	38	-1.8%	-40%[inhibitor]	5%
C=CCON1C(=O)C(=O)N(OCC=C)[C@H]2CCCC[C@H]21	3.4	-6	12%	4	-0.3%	7%	18%
COc1ccc2occ(C(=O)c3cccs3)c2c1	-2.4	22	-26%	5	-2.3%	0%	2%
CC(C)CNC(=O)C(=O)Nc1ccc2c(c1)N(S(=O)(=O)c1cccs1)CCC2	nt	-3	6%	72	nt	18%[15.4 µM]	nt
Cc1ccc(OC(=O)c2c(C)nn(-c3ccccc3)c2C)cc1	-1.0	1	?	42	nt	-7%[15.4 µM]	-6%
CCOC(=O)CC(=O)CSc1nc2c(c(-c3cccs3)c1C#N)CCC2	14	3	4%	18	-2.9%	?	-3%
COC(=O)c1ccc(N)c(N=CC2=C(O)CC(C)(C)CC2=O)c1	-19	2	-3%	1	-26%	?	12%
CCCCC1C(C#N)=C(C)NC2=C1C(=O)CC(C)(C)C2 (stereo not drawn)	0.9	-2	-10%	15	13µM*	?	15%
CCN1C(=O)[C@H]2[C@@H](c3ccc(-c4ccc5c(c4)OCO5)c(OC)c3)N[C@@](Cc3ccccc3)(C(=O)OC)[C@H]2C1=O	nt	-2	-2%	0	4.0%	?	nt
COC(=O)CN1C(=S)N(c2ccc(OC)cc2)C(=O)C1CC(=O)Nc1ccc(F)cc1 (stereo not drawn)	0.6	-2	-25%	-8	nt	-11%[15.4 µM]	12%
Cc1ccccc1N1C(S)=C(C#N)C(=O)NC1c1ccco1 (stereo not drawn)	2.3	7	-18%	9	-4.8%	2%	13µM*
C#CCOCCOCCOCCNc1nc(N2CCOCC2)nc(N2CCN(C(=O)CCCCCCCCCCNC(=O)[C@@H](CCC(=O)O)n3cc(CCCCCN)nn3)CC2)n1	nt	4	-7%	2	-0.8%	nt	nt
Clc1cccc(NCc2nnc(SCc3ccc(Cl)cc3Cl)o2)c1	3.5	27	2%	-4	0.8%	-1%	3%
CC(C)NC(=O)N1CCN(c2ccncc2S(=O)(=O)N2CCCCC2)CC1	nt	21	-5%	10	-0.3%	-7%	10%
CCOC(=O)c1c(C)[nH]c(C)c1C(=O)COC(=O)c1cc(OC)c(OC)cc1OC	-7.9	1	6%	7	nt	?	13%
CCN(CC)CCn1nc2c3c(cccc3c1=O)-c1ccccc1-2	2.7	3	4%	-13	-13%	?	-7%
CCCC[C@H]1C2=C3[C@@H](CC(C(=O)OC)=C[C@@H](C(=O)OC)[C@H]3C(C)(C)C2=O)n2c(=O)n(C)c(=O)n21	4.9	nt	nt	19	nt	nt	-3%
CC(C)c1ccc(-c2c(C#N)c(N)nc(SCC(=O)N3CCCCC3)c2C#N)cc1	0.5	-5	38%[activator]	-9	-29%	?	-20%
N#CC(c1ccccc1)c1ccc2c(C(F)(F)F)cc(C(F)(F)F)nc2n1 (stereo not drawn)	4.3	15	-3%	10	-3.5%	?	8%
COC(=O)c1cc(S(=O)(=O)N2CCCCC2)ccc1N1CCOCC1	nt	7	7%	4	-1.0%	7%	nt
CCOC(=O)N1CCN(C(=O)Nc2cccc3ccccc23)CC1	1.5	4	-8%	36	nt	8%[15.4 µM]	14%
C[C@H]1CN([C@@H](C)CO)S(=O)(=O)c2ccc(Br)cc2O[C@H]1CN(C)Cc1ccc(F)cc1	nt	nt	nt	56	-0.7%	5%	nt
O=C(NNC(=O)c1ccc(O)cc1O)c1ccc(-c2ccccc2)cc1	7.5	-3	-9%	nt	0.8%	-46%	31%[activator]
COc1ccc(CCNC(=O)C2CC(=O)N(c3ccc(C(C)(C)C)cc3)C2)cc1OC (stereo not drawn)	5.6	-8	-11%	22	-1.5%	6%	-4%
CC1CCCCN1S(=O)(=O)c1ccc(C(=O)Nc2nnc(-c3ccccc3Cl)o2)cc1 (stereo not drawn)	0.2	10	?	10	0.5%	-53%[inhibitor]	20%
Cc1c(NC(=O)CSc2nc3ccccc3c(=O)n2C(C)C)c(=O)n(-c2ccccc2)n1C	nt	1	-22%	-22	0.5%	?	nt
CCCn1c(C2CC(=O)N(c3cc(OC)ccc3OC)C2)nc2ccccc21 (stereo not drawn)	0.4	-6	-14%	3	-5.9%	-132%[inhibitor]	9%
Cc1ccc(NC(=O)c2ccc(=O)n(CC(=O)Nc3ccccc3)n2)cc1	nt	23	1%	9&-7	-1.3%&0.7%	0%	-4%
Cc1ccc(NC(=O)Nc2ccc(F)cc2)cc1Cl	-4.9	23	-12%	26	nt	-20%	17%
Cc1cccc(N/N=C2/COC(C)(C)CC2=O)c1	?	-6	-7%	-3	1.7%	3%	-3%
COc1ccc(N(C(=O)c2snc(C(N)=O)c2N)C(C(=O)NC2CCCC2)c2ccco2)cc1 (stereo not drawn)	nt	-4	-11%	-3	nt	15%	6%
CCCOc1ccc(/C=C/C(=O)Nc2ccc([N+](=O)[O-])cc2C)cc1OC	0.9	7	-9%	14	1.8%	1%	-11%
